Assay outcomes as filed in PubChem BioAssay.
PrP UTR inh = inhibition of PrP 5' UTR reporter expression; AID 488862; cell-based PrP 5' UTR mRNA reporter, plate reader; inhibition, % (test concentration not listed); 0.35% of 340,000 active;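 active = every replicate at 50% or more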;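 note: 0 = median of the neutral control wells; tested in H4 reporter cells; numbers are from one replicate; inactives centre near -14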
BJeLR lethal = kills HRASV12-expressing BJeLR cells; BJeLR (HRASV12) viability, CellTiter-Glo ATP luminescence, 48 h; reference of the scale not given here; inhibition, % (no concentration beside the values); 0.17% of 300,000 active; AID 1554;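 active = replicate mean above 50%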;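 note: 50 nL library stock added to about 25 µL; numbers are from one replicate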
Sa RN4220 lethal = S. aureus RN4220 growth inhibition; inhibition, % (test concentration not listed); 0.33% of 330,000 active; AID 1259311; OD600, 16 h;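 active = z-score of -3 or lower and OD600 up to 0.18 on both plates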;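 note: plate controls were untreated cells for no effect and reference antibiotic for full effect; stock transfer was 100 nL into about 80 µL; one replicate is shown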
Mtb hypoxia rep = Mtb hypoxia fluorescent reporter inhibition. M. tuberculosis hypoxia-regulated fluorescent reporter, fluorescence. fluorescence inhibition, % (no concentration beside the values). 0.1% of 300,000 active. AID 1159583;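 active = 35 to 45% if threefold the growth effect, above 45% if 1.5-fold the growth effect; inactive = the rest, general growth blockers included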;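 note: wells of about 50 µL received 100 nL stock; 0% = vehicle wells and 100% = reference inhibitor wells; whole bacteria with a GFP reporter of the hypoxia response; strong numbers were not always called active; many hits fall short of the cut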
ugtP null kill = kills S. aureus RN4220 lacking UgtP; S. aureus RN4220 ugtP deletion, OD600 growth, 16 h; some inactives read as strong as hits; growth inhibition, % (no concentration beside the values); 0.54% of 330,000 active; AID 1259309;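 active = z-score under -3 and OD600 up to 0.15 on both plates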;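 note: plate controls were untreated wells for no effect and antibiotic for full effect; wells of about 80 µL received 100 nL stock; the first replicate is given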
Bead autofluor = flagged as autofluorescent in microsphere protease counterscreen. compound autofluorescence counterscreen, microsphere flow cytometry; stronger effect = higher value. fluorescence intensity (concentration not given with the values). 3.1% of 360,000 active;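 active = at least 3 SD above the mean of all compounds, about 16000 in these data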;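 note: 100 nL of 1 mM stock went into each well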
Mtb hypoxia rep growth = recorded beside Mtb hypoxia rep, whose call it bears; growth inhibition, %; measured here: M. tuberculosis growth (absorbance);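 0% = vehicle and 100% = reference antibiotic; read after six days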
* = called active by the depositor; nt = no result given; & = joins results of further samples.

SMILES	PrP UTR inh	BJeLR lethal	Sa RN4220 lethal	Mtb hypoxia rep	Mtb hypoxia rep growth	ugtP null kill	Bead autofluor
COc1ccccc1N1CCN(CC(=O)Nc2sccc2C#N)CC1	-5	-3	6.6	12	3	4	2592
COCc1c(C(=O)NN=C(C)c2ccc(OCc3ccccc3)cc2)nnn1-c1nonc1N	nt	nt	0.9	-4	-7	-1	nt
S=c1[nH]nc(-c2ccccn2)n1/N=C/c1cccc(Cl)c1	-15	-2	nt	nt	nt	nt	4356
C=C[C@]1(C)C[C@@H](OC(=O)CSCCN(CC)CC)[C@]2(C)C(C)CC[C@]3(CCC(=O)[C@H]32)[C@@H](C)[C@@H]1O (stereo partly drawn)	-8&10	-10&-10	nt	nt	nt	nt	4245&4665
CC(C)CN(CC(C)C)C(=S)NC1CCCCC1	-13	-6	3.7	18	4	1	2018
CN(C)S(=O)(=O)c1ccc(C(=O)NN2C(=O)NC3(CCCCC3)C2=O)cc1	-8	nt	4.1	-28	-72	8	5649
O=C(CCn1c(=O)oc2ccc(Cl)cc21)NCCCN1CCOCC1	-2	1	1.2	-10	-3	2	6588
Cc1ccc(CSc2nc3ncccc3[nH]2)cc1	-61	3	-12	11	10	-8	2482
COc1ccc(C(=O)NNC(=O)CSc2ccccc2)cc1	-16	6	2.1	10	11	5	5828
Cc1cc(Br)cc2c(C(=O)NCC3CCCO3)cc(-c3cccs3)nc12 (stereo not drawn)	-9	-10	-3.2	1	-4	10	5858
Cc1ccc(NC(=S)NC(=O)c2ccccc2)cc1NC(=S)NC(=O)c1ccccc1	-21	2	5.3	2	4	-10	4033
COc1ccc(OCC(=O)Nc2nnc(-c3ccco3)s2)cc1	-1	1	4.3	10	-2	-4	2318
Cc1ccc(NC(=O)CSc2nc(CSc3ccc(C)cc3)cc(=O)[nH]2)cc1	-3	-5	9.1	14	6	-20	4218
O=C(N/N=C/c1cccnc1)C12CC3CC(CC(C3)C1)C2	-15	-12	nt	nt	nt	nt	4166
NC(=O)NC(CC(=O)NCc1ccc2c(c1)OCO2)c1ccccc1Cl (stereo not drawn)	-6	-9	-7.8	0	-4	0	3949
O=C(NC(=S)Nc1ccc2c(c1)OCCO2)c1ccc(F)cc1Cl	-52	-3	2.9	6	2	56	2584
CC1(C)CC(=O)C2=C(C1)OC(N)=C(C#N)C21C(=O)N2CCCc3cccc1c32 (stereo not drawn)	-20	-15	20	-1	-4	-5	16191*
O=S(=O)(c1ccc(F)cc1)N1CCN(CC(O)COCc2cccs2)CC1 (stereo not drawn)	-2	-14	3.3	5	2	15	10115
CC(C)c1ccc(-c2c(C#N)c(N)nc3c2CCCCC3)cc1	2	-8	2.7	6	2	23	2938
Cc1cc(-c2cn3ccccc3n2)c(C)n1-c1ccccc1	-23	-4	5.8	-13	-3	14	4962
COCCn1cc(C(=O)N2CCN(C)CC2)c2c3ccccc3n(C)c2c1=O	-5	-23	4.5	13	8	1	9449
CC(C)(C)NC(=O)/C(=C\c1ccccc1F)NC(=O)c1ccc([N+](=O)[O-])cc1	-13	-4	2.4	0	4	8	2252
Cc1cc(=O)[nH]c(NN=Cc2ccc(-c3ccc([N+](=O)[O-])cc3)o2)n1	nt	nt	-1.0	-2	3	-2	nt
CCCCCOC(=O)C1=C(C)NC(=O)NC1c1ccc2c(c1)OCO2 (stereo not drawn)	-5	-5	3.2	11	2	7	3295
O=c1c2ccccc2ncn1-c1ccc(Cl)cc1	-39	3&2	1.9&4.8	2&8	12&8	-4&10	6082&3052
CC(O)C(NS(=O)(=O)c1ccc(Cl)cc1)C(=O)OCC(=O)N1CCN(c2ccccc2)CC1 (stereo not drawn)	-14	14	8.2	-6	1	12	2294
Cc1ccc(-c2nc(N)n(C(=O)c3ccco3)n2)cc1	0	7	1.2	0	1	3	4321
CCN(CC)S(=O)(=O)c1cc(NC(=O)Cc2n[nH]c(=O)c3ccccc23)ccc1C	-2	-1	5.4	5	5	14	3670
CC(C)(C)OC(=O)CNC(=O)c1[nH]cnc1C(=O)Nc1ccc(CNC(=O)OC(C)(C)C)cc1	-21	13	6.9	1	-6	2	4269
Cc1cccc(NC(=O)Nc2cccc(F)c2)n1	-74	3	11	8	8	1	3237
Cc1cc(C)n2ncc(/C(N)=N/OC(=O)Nc3ccc(Cl)cc3)c2n1	-4	4	1.8	5	-2	-2	nt
CCCCCCCCCCOC(=O)Cn1c(COc2ccccc2)[n+](C)c2ccccc21	-33	5	nt	nt	nt	nt	3843
Cc1cccc(NC(=O)NCc2ccc3c(c2)OCO3)c1C	-5	-8	5.3	10	5	4	2524
CCCCc1nnc(NC(=O)CC(=O)Nc2ccccc2C(=O)O)s1	-21	-3	3.2	6	10	3	2521
CCOc1ccccc1OCC(=O)Nc1ccc(S(=O)(=O)Nc2ncccn2)cc1	13	-1	3.5	12	5	4	9014
O=C(c1ccccn1)N(Cc1ccco1)C1(C(=O)NC2CCCCC2)CCCCC1	-7	1	3.4	8	0	4	9802
O=C(COC(=O)C1CC(=O)N(Cc2ccco2)C1)Nc1nc(-c2ccc(F)cc2)cs1 (stereo not drawn)	-23	nt	2.4	-2	4	-9	3962
O=C(O)C1CCC(=O)N(C2CC2)C1c1ccccc1 (stereo not drawn)	-19	-21	1.4	-1	-5	5	3488
CC(=O)c1ccc2noc(-c3cccc(C)c3)c2c1	-23	-2	22	-8	-7	-2	4749
CCOc1cc(/C=N/O)cc(Br)c1OCC	-6	5	nt	nt	nt	nt	4088
Cc1cccc(-c2cc(C(=O)Nc3ccncc3)c3ccccc3n2)c1	-7	5	-6.0	-2	-3	11	7507
Cc1ccc2[nH]c3nc(SCC#N)nnc3c2c1	-2	-9	7.0	13	6	11	3001
COc1ccc(-n2c(COc3cccc4cccnc34)nnc2SCC(=O)O)cc1	-19	5	-0.9	7	10	8	4130
O=C(O)C1CSC(c2cccnc2)N1 (stereo not drawn)	-15	12	0.1	nt	nt	10	2538
CN(C)S(=O)(=O)c1cccc(C(=O)NCCCn2ccnc2)c1	-18	-5	3.6	-13	-3	0	3949
COC(=O)c1ccccc1NC(=O)CSc1nc(N)cc(N)n1	-13	-12	0.4	-3	2	-18	4153
O=C(Oc1cccc(C(=S)N2CCOCC2)c1)c1cccc([N+](=O)[O-])c1	-27	2	-2.9	-12	0	0	2475
O=C(NC(CO)(CO)CO)c1coc(=O)c(Br)c1	-5	3	5.7	13	12	8	17123*

Looked up by compound from the entries so far (5):
SMILES	PrP UTR inh	BJeLR lethal	Sa RN4220 lethal	Mtb hypoxia rep	Mtb hypoxia rep growth	ugtP null kill	Bead autofluor
Cc1cccc(-c2cc(C(=O)Nc3ccncc3)c3ccccc3n2)c1	-7	5	-6.0	-2	-3	11	7507
CN(C)S(=O)(=O)c1cccc(C(=O)NCCCn2ccnc2)c1	-18	-5	3.6	-13	-3	0	3949
O=C(NC(CO)(CO)CO)c1coc(=O)c(Br)c1	-5	3	5.7	13	12	8	17123*
Cc1ccc2[nH]c3nc(SCC#N)nnc3c2c1	-2	-9	7.0	13	6	11	3001
CC(=O)c1ccc2noc(-c3cccc(C)c3)c2c1	-23	-2	22	-8	-7	-2	4749

Continued:
SMILES	PrP UTR inh	BJeLR lethal	Sa RN4220 lethal	Mtb hypoxia rep	Mtb hypoxia rep growth	ugtP null kill	Bead autofluor
O=C(C1=C(O)C(=O)N(CC2CCCO2)C1c1ccc(Cl)cc1)c1ccco1 (stereo not drawn)	-9	2	15	-17	-3	-1	3634
O=C(Nc1ccccc1)NC1CC2CCC(C1)N2Cc1nnnn1Cc1ccc2c(c1)OCO2 (stereo not drawn)	-8	-3	0.0	7	18	-13	3969
COc1ccc(CCNC(=O)C(=Cc2cccnc2)NC(=O)c2ccccc2)cc1OC	nt	nt	4.9	3	-2	1	nt
CCOC(=O)C1CCN(S(=O)(=O)c2ccc(CNC(=O)c3ccccc3)s2)CC1	-3	3	-0.8	1	-3	-1	2987
O=C(NC(=S)Nc1cccc(Cl)c1N1CCCCC1)c1ccco1	-16	0	1.8	9	5	28	8219
N/C(=N\OC(=O)c1ccco1)c1ccc(Br)cc1	-55	12	4.2	nt	nt	3	2876
CCc1nc2ccc(C(=O)N(CC)CC(=O)Nc3c(F)cccc3F)cc2nc1CC	15	nt	5.5	9	0	9	2981
Cc1cc(C)cc(-n2nnc(C(=O)NCc3ccc4c(c3)OCO4)c2N)c1	-21	-17	3.4	12	1	1	3708
C#CCn1c(=NC(=O)CN2C(=O)CCC2=O)sc2cccc(C)c21	-24	4	19	0	3	7	4357
O=C(CC(=O)NCc1ccccc1)NCc1ccccc1	-27	-2	2.0	17	8	2	4762
CN1CCN(C=C2SC(=S)NC2=O)CC1	nt	nt	2.5	14	12	0	nt
CNC(=S)N1CCC(NC(=O)C(Cc2ccccc2)NC(C)=O)CC1 (stereo not drawn)	-2	-12	0.0	-6	-5	-4	4691
COc1cc(CNn2c(C)n[nH]c2=S)cc(Cl)c1OCc1ccccc1	-3	-7	8.7	-2	5	-8	5248
C=CCN(C(=O)c1ccc2c(c1)nnn2C)c1ccccc1	-7	-11	0.8	2	6	9	5313
COc1ccc(O)c(C=NCC(C)N=Cc2cc(OC)ccc2O)c1 (stereo not drawn)	-26	-9	-1.5	-10	3	3	2036
C/C(=N/NC(=O)c1ccc(Br)s1)c1ccncc1	-14	4	nt	nt	nt	nt	4347
CCOC(=O)c1cnc(Nc2ccc(OCC)cc2)nc1C	-27	-22	1.4	2	12	7	4180
CC1(C)CC(=O)C2=C(C1)NC(Nc1nc3ccccc3o1)=NC21CCCC1	-30	-4	6.5	0	1	-8	11049
Cc1nn(Cc2noc(C(=O)NC3CCC(C)CC3)n2)c(C)c1Br (stereo not drawn)	-17	-8	2.1	5	0	-2	5323
Cc1ccc(S(=O)(=O)N[C@H](C(=O)N2CCC(C(=O)N[C@@H](CC(=O)O)C(=O)O)CC2)C(C)C)cc1	41	-1	-1.3	nt	nt	-7	5813
Cc1ccc(S(=O)(=O)NC2(C(=O)O)CCCCC2)cc1	-12	-5	2.4	9	14	4	23381*
COc1ccc(CN=Cc2[nH]c3ccc(Br)c(Cl)c3c2O)cc1	-24	-17	-0.5	3	-2	-4	12617
NC(=Nc1ccc(Br)cc1)c1ccccc1	-20	3	5.8	3	-4	12	4134
CC(c1ccccc1)N1C(=O)c2ccc(C(=O)Nc3ccc(Br)cc3C(=O)O)cc2C1=O (stereo not drawn)	-5	-4	100*	11	-2	92*	4327
O=C(NNS(=O)(=O)c1ccc([N+](=O)[O-])cc1)C1CCCCC1	-10	-2	10	11	-4	1	4474
O=C(CN1CCN(c2cccc(Cl)c2)CC1)N1CCCC1	-20	2	0.9	nt	nt	3	4343
C=CCSc1nc2nc(C)cc(C)n2n1	-8	0	-2.6	1	2	-1	4516
Nn1cnnc1N/N=C/c1cc(Br)cc(Br)c1O	-9	-2	nt	nt	nt	nt	2367
COc1ccc(C2=NN(C(=O)c3ccccc3C(=O)O)C(c3ccccc3O)C2)cc1 (stereo not drawn)	-33	0	-1.9	-8	-4	0	6124
O=C1Cc2ccccc2C(=O)N1c1ccccc1	-11	1	5.3	12	0	4	5335
Cc1ccc2[nH]c(=O)c(CN(CC3CCCO3)C(=O)c3cccs3)cc2c1 (stereo not drawn)	-5	-5	5.7	-12	-15	2	3163
c1ccc(N2CCOCC2)c(Nc2nc3ccccc3n3cnnc23)c1	-7	4	3.5	-3	-7	6	4270
O=S(=O)(c1ccccc1)c1nc(-c2ccco2)oc1N1CCCCC1	0	-1	3.3	10	-1	0	5165
Clc1cc2c(cc1/C=N/Nc1nc(N3CCOCC3)nc(N3CCOCC3)n1)OCO2	-29	-1	nt	nt	nt	nt	4529
Nc1ccc2c(O)cc(S(=O)(=O)O)cc2c1	-21	nt	3.4	11	16	3	3638
COc1cc(C=CC(=O)N2C(=O)c3cccc(N)c3C2=O)cc(OC)c1OC	nt	nt	11	-1	-6	-1	nt
COc1ccc(NC(=O)CSc2nnc(Cn3nnc4ccccc43)n2C)cc1	-19	nt	-11	5	3	2	2952
CCCCCNCc1ccc(OCc2ccc(Cl)nc2)c(OC)c1	-31	1	3.3	1	1	7	2579
